NPYLR7 agonist = mosquito NPYLR7 agonism | hit rate 0.15% among 270,000 | activation, % at 10 µM | HEK293T NPYLR7/Galpha15, GCaMP6s calcium fluorescence; in the data active = activation above about 40%;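 also: 0% = vehicle and 100% = reference agonist at the receptor; some compounds past the cut are filed as inactive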
NPYLR7 agonist max-min = also measured in NPYLR7 agonist; calls as there; activation, %; measured here: Max-Min RFU normalised activation; some inactives read as strong as hits;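 span of the calcium signal over five minutes; 0% = vehicle and 100% = native peptide agonist; compound fluorescence can raise it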
Active calls of the source: *; & = joins results of further samples. This is a subset; count on the stated rates, not on these rows.

SMILES	NPYLR7 agonist	NPYLR7 agonist max-min
Cc1csc(NC(=O)CN(C)c2ccc(F)cc2)n1	-5	-5
c1nc(NC2CCCCCCCCCCC2)c2cn[nH]c2n1	7	4
O=C(NNS(=O)(=O)c1ccccc1)c1cncn1-c1ccc(F)cc1	-4	-5
Cc1ccsc1-c1nc(CN2[C@@H]3CC[C@H]2CC(O)C3)c(C)o1 (some centres not stated)	-4	-9
COc1ccc2c(c1)CCc1c-2noc1-c1ccc(NC(=O)Cc2ccccc2Br)cc1	3	5
CCN(CC)S(=O)(=O)c1ccc(NC(=O)c2cc(C)oc2C)cc1	10	3
CC(=O)N1Cc2cc(Cl)ccc2CC1c1ccccc1 (configuration not stated)	3	0
CCc1nc2c(OCc3cc(Cl)cc(Cl)c3)cccn2c1N(C)C(=O)c1ccccc1F	1	9
O=C(c1cccnc1Oc1ccccc1)N1CCC(O)(c2ccccc2)CC1	-7	-12
CC(Nc1ccn(CCS(C)(=O)=O)n1)c1ccc(C#N)cc1 (configuration not stated)	1	-1
COc1cc(CN2C(=O)C(Cc3ccccc3)ON=C2C)cc(OC)c1 (configuration not stated)	5	3
Cc1ccc(C(=O)N2CCC3(CC2)SCCN3C(=O)c2ccc(Cl)cc2)cc1[N+](=O)[O-]	-4	-2

Individual results from above:
NPYLR7 agonist with c1nc(NC2CCCCCCCCCCC2)c2cn[nH]c2n1 reads 7
NPYLR7 agonist with COc1cc(CN2C(=O)C(Cc3ccccc3)ON=C2C)cc(OC)c1 (configuration not stated) reads 5
NPYLR7 agonist with CC(Nc1ccn(CCS(C)(=O)=O)n1)c1ccc(C#N)cc1 (configuration not stated) reads 1
NPYLR7 agonist max-min with Cc1ccc(C(=O)N2CCC3(CC2)SCCN3C(=O)c2ccc(Cl)cc2)cc1[N+](=O)[O-] reads -2
NPYLR7 agonist with Cc1csc(NC(=O)CN(C)c2ccc(F)cc2)n1 reads -5
NPYLR7 agonist with O=C(NNS(=O)(=O)c1ccccc1)c1cncn1-c1ccc(F)cc1 reads -4
NPYLR7 agonist with CCN(CC)S(=O)(=O)c1ccc(NC(=O)c2cc(C)oc2C)cc1 reads 10

(listing goes on)
SMILES	NPYLR7 agonist	NPYLR7 agonist max-min
CCc1cnc2c(c1OC)c(=O)n(Cc1cccnc1)c(=O)n2C	2	-1
N#CC1(c2nc3ccccc3[nH]2)Cc2c(F)cccc2N2CCCC21 (configuration not stated)	2	-7
Cc1c(C)c2ccc(O)c(I)c2oc1=O	-3	-6
CCc1ncc(CN2CCC(O)(c3cccc(C(F)(F)F)c3)CC2)cn1	2	1
COc1ccc(C2Nc3ccccc3C(=O)N2c2ccccc2)cc1COc1cc(C)c(Cl)cc1C(C)C (configuration not stated)	9	5
CCCC(C)c1nc(N2CCN(C(=O)c3ccccc3OC)CC2)c2cnn(-c3ccccc3)c2n1 (configuration not stated)	13	11
CCCCC(CC)C(=O)NC(Cc1ccccc1)C(=O)Nc1cc(C(C)(C)C)nn1-c1ccccc1C (configuration not stated)	-2	-1
COc1ccc([S+]2CCCCC2)cc1	-14	-22
Cc1ncc([N+](=O)[O-])n1CCNC(=O)CCCCC1CCSS1 (configuration not stated)	-6	-9
COc1cccc2cc(C(=O)NC(C)=O)c(=Nc3cccc(C)c3)oc12	6	2
CCCc1cc(=O)[nH]c(N=C(NC(=O)c2ccccc2)Nc2ccccc2)n1	1	1
c1cc(OCc2noc3c2CCCC3)cc(-n2ccnc2)c1	-2	-5
CC(=O)CCN1C(=O)NC2(CCCCCC2)C1=O	4	6
Cc1cc(C)n(CC(C)NCC(=O)Nc2cnccn2)n1 (configuration not stated)	-1&-5	-4&-6
CS(=O)(=O)NCCc1ccc(-c2csc(-c3ccco3)n2)s1	1	-4
Cc1ccc(-n2nnc3c(=O)n(CC(=O)N4CCCc5ccccc54)cnc32)cc1C	-4	-11
COCc1cnc2c(c1SCC(=O)Nc1ccc(OC(F)(F)F)cc1)c(=O)n(C)c(=O)n2C	8	14
CCN(CC)Cc1c(O)ccc2c(CN(CC)CC)c(O)ccc12	-1	0
CCN(C/C=C/c1ccccc1)C(=O)c1cnc2ccccn2c1=O	4	4
N#CCCN(C(=O)c1cc(Cl)c[nH]1)c1ccc2c(c1)OCCO2	-20	-22
CN(CC1COc2ccccc2O1)C(=O)c1ccc(NCc2ccncc2)nc1 (configuration not stated)	19	6
COCCn1cnc2cnc(Nc3ccc(C(F)(F)F)cc3)cc21	18	14
Cc1c(C)n2c3c(=O)[nH]c(=O)n(C)c3nc2n1CCN1CC(C)CC(C)C1 (configuration not stated)	10	17
CN1CCN(C(c2ccccc2F)C2Sc3nc(-c4ccco4)nn3C2=O)CC1 (configuration not stated)	5	3

Part of the list above, with two lines to a compound:
Values in the order – NPYLR7 agonist | NPYLR7 agonist max-min
> N#CCCN(C(=O)c1cc(Cl)c[nH]1)c1ccc2c(c1)OCCO2
→ -20 | -22
> CN(CC1COc2ccccc2O1)C(=O)c1ccc(NCc2ccncc2)nc1 (configuration not stated)
→ 19 | 6

Continuation.
SMILES	NPYLR7 agonist	NPYLR7 agonist max-min
COc1ccc2cc(CCC(C)=O)ccc2c1	-3&-16&-3	-7&-21&-4
CCC(C)CNCC(=O)N1CCc2sccc2C1COc1cccc(C)c1 (configuration not stated)	14	16
CCN(CC)S(=O)(=O)c1ccc2c(c1)CCN2C(=O)C1COc2ccccc2O1 (configuration not stated)	-2	-1
COc1ccc(OC)c2sc(N(CCCN(C)C)C(=O)c3ccc(Br)s3)nc12	1	-2
Cc1cc(C)cc(C(=O)NCc2ccc(S(=O)(=O)N3CCOCC3)s2)c1	9	11
COCCCN1COc2ccc3cc(-c4cc(OC)ccc4OC)c(=O)oc3c2C1	-8	-15
O=C(/C=C\c1ccc2c(c1)OCO2)NCCn1ncc2c(=O)n(Cc3cccc4ccccc34)cnc21	-3	-9
O=C(Cn1ncc(Cl)c(Cl)c1=O)N(C1=CCCCC1)C1CC1	0	4
CCOC(=O)c1sc(NC(=O)c2ccc(SC)cc2OC)nc1C	7	1
Cc1ccc(C)c(NC(=O)c2cn(C)c3c(=O)n(-c4ccccc4)c(=O)[nH]c23)c1	2	-1
COCCCN(Cc1cccn1Cc1cccc(C(F)(F)F)c1)C(=O)CN(Cc1ccccc1)C(=O)c1ccc(F)cc1	2	5
Cn1c(=O)[nH]c(=O)c2c1nc(SCC(=O)OCc1ccccc1)n2CCCc1ccccc1	10	4
CC1CC(C)CN(C(=O)C(C)OC(=O)c2ccc3nc(N)sc3c2)C1 (configuration not stated)	7	7
Cn1c(SCC(=O)N2CCC(C(=O)Nc3ccccc3)CC2)nc2sccc2c1=O	13	6
N#Cc1cccc(C(=O)N2CCN(c3ncccc3C(=O)NCC3CCCO3)CC2)c1 (configuration not stated)	-3	6
CCC(SCc1cc2c(cc1Br)OCCO2)C(=O)Nc1cc(C)on1 (configuration not stated)	3	5
O=C(Nc1ccc(C(F)(F)F)cc1)N1CCN(c2nc(-c3cccc(Br)c3)nc3ccccc23)CC1	13	24
O=C1CCc2cc(C(=O)N3CCCC3c3nnc4ccccn34)ccc2N1 (configuration not stated)	5	4
Cc1cc(NC(=O)N(C)Cc2cc(Br)cs2)n(C)n1	-5	-6
CCc1nc(CN(C)C(CC)c2cccnc2)c(C)[nH]1 (configuration not stated)	13	8
Cc1cc(C(=O)N2CCN(c3nnc(SCC(=O)Nc4ccccc4)s3)CC2)c(C)o1	-1	0
Cc1cccc(-c2nnc(SCc3ccc(Br)cc3)n2-c2ccccc2)c1	1	3
Cc1ccc(C)c(/C=N\n2c(C)nnc2-n2nc(C)cc2C)c1	3	2
N[C@@H]1CONC1=O	-3&-11&-11&9&6	-5&-14&-18&-1&-7
CCCCN(CC(=O)Nc1cc(C(C)(C)C)nn1-c1ccc(Cl)c(Cl)c1)C(=O)c1cc(C(F)(F)F)cc(C(F)(F)F)c1	-2	15
COC(=O)C1CCN(Cc2cccc(C(=O)Nc3nccn3C)c2)CC1	-2	-6

Three entries out of the list, arranged by heavy-atom count, largest number first.
SMILES	NPYLR7 agonist	NPYLR7 agonist max-min
O=C1CCc2cc(C(=O)N3CCCC3c3nnc4ccccn34)ccc2N1 (configuration not stated)	5	4
COC(=O)C1CCN(Cc2cccc(C(=O)Nc3nccn3C)c2)CC1	-2	-6
Cc1ccc(C)c(/C=N\n2c(C)nnc2-n2nc(C)cc2C)c1	3	2

Six records drawn at random from those above, as already listed:
SMILES	NPYLR7 agonist	NPYLR7 agonist max-min
O=C(Nc1ccc(C(F)(F)F)cc1)N1CCN(c2nc(-c3cccc(Br)c3)nc3ccccc23)CC1	13	24
N#Cc1cccc(C(=O)N2CCN(c3ncccc3C(=O)NCC3CCCO3)CC2)c1 (configuration not stated)	-3	6
N[C@@H]1CONC1=O	-3&-11&-11&9&6	-5&-14&-18&-1&-7
CC1CC(C)CN(C(=O)C(C)OC(=O)c2ccc3nc(N)sc3c2)C1 (configuration not stated)	7	7
CCCCN(CC(=O)Nc1cc(C(C)(C)C)nn1-c1ccc(Cl)c(Cl)c1)C(=O)c1cc(C(F)(F)F)cc(C(F)(F)F)c1	-2	15
O=C1CCc2cc(C(=O)N3CCCC3c3nnc4ccccn34)ccc2N1 (configuration not stated)	5	4
